# High-throughput results (PubChem BioAssay)
# NOD1 NF-kB reporter = NOD1 signaling inhibitors, primary screen, cell-based, luminescence, uHTS (AID 1578); hit rate 1% among 290,000; one-dose inhibition, % at 4 µM; EC50 in µM for titrated hits; NOD1-driven NF-kB luciferase reporter cells, luminescence; higher % means a stronger effect; in the data active means inhibition mostly above about 36%, no sharp cut-off; inactive means mostly below about 34%;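 further: HEK-293T reporter cells stimulated with the NOD1 agonist gamma-tri-DAP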
# HEK293 NOD2/NF-kB = NOD2 signaling inhibitors, cell-based, luminescence, uHTS, HEK293 (AID 1566) | HEK293 NOD2/NF-kB luciferase reporter, luminescence; higher % means a stronger effect | hit rate 0.63% among 290,000 | inhibition, % at 4 µM, or EC50 in µM where a hit was titrated; in the data active means inhibition above about 50%; further: many of its hits are not listed in these tables
# Siah-1 displacement = Siah-1 peptide-binding antagonists, primary screen, biochemical, fluorescence polarization, rhodamine-plectin, uHTS (AID 1817). Siah-1 / rhodamine-plectin peptide fluorescence polarization; higher % means a stronger effect. displacement, % at 20 µM, or IC50 in µM where a hit was titrated. hit rate 0.02% among 290,000;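 active means displacement of at least 50% at 20 µM, with a fluorescence ratio check between 0.3 and a set limit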;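 further: plate controls were Siah plus tracer with DMSO for no effect and tracer alone without Siah for full effect; strong numbers were not always called active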
# HIV peptide binding = inhibitors of HIV fusion peptide binding, primary screen, biochemical, uHTS, fluorescence dequenching (AID 1986); cell-free peptide binding, fluorescence dequenching, 30 min; higher % means a stronger effect; inhibition, % at 20 µM; hits with a dose series show IC50 in µM; hit rate 0.3% among 290,000; in the data active means inhibition mostly above about 52%, no sharp cut-off; inactive means mostly below about 76%; further: some results filed as inactive read as strong as hits
# Myeloid diff 2 = myeloid differentiation induction; ER-HoxA9 myeloid progenitors, lysozyme-GFP differentiation, flow cytometry; calls only at 10 µM; hit rate 1% among 360,000; AID 624256;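 active means normalized GFP-positive differentiation at or above the plate's own cutoff, the solvent-only control mean plus 3 SD; inconclusive means no clear call, values can overlap the other calls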;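 further: cells exposed to compound for four days before flow analysis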
# Myeloid diff 2 GFP+ MAC1+ % = further read-out of Myeloid diff 2, marked with its call; GFP+ MAC1+ double positive, %; measured here: differentiation confirmed by MAC1 staining
# Numbers without * were called inactive; i = inactive; u = inconclusive; x = not tested or not shown; + = active, no number; & = joins results of further samples. An excerpt, so the mix of outcomes need not match the whole.
1: C#C[C@]1(O)CC[C@H]2[C@@H]3CCC4=C(CCC(=O)C4)[C@H]3CC[C@@]21C
2: NC(=S)N=Nc1ccc(NN=C(N)N)cc1
3: O=c1[nH]c(=O)n(C2C[C@H](O)[C@@H](CO)O2)cc1C(F)(F)F (stereo partly drawn)
4: COc1ccc2cc(C(C)C(=O)O)ccc2c1 (stereo not drawn)
5: CCCNCC(O)COc1ccccc1C(=O)CCc1ccccc1 (stereo not drawn)
6: Nc1c(Br)cc(Br)cc1CNC1CCC(O)CC1 (stereo not drawn)
7: CCN(CC(=O)NC(C)(C)C)C(=O)COc1c(Cl)cc(Cl)c2ccc(C)nc12
8: CC(C)n1c(/C=C/[C@@H](O)C[C@@H](O)CC(=O)O)c(-c2ccc(F)cc2)c2ccccc21

entry no.	1	2	3	4	5	6	7	8
NOD1 NF-kB reporter	2%	39%	x	x	-33%	-38%	49%*	-29%
HEK293 NOD2/NF-kB	-3%	29%	x	x	7%	-26%	4%	-20%
Siah-1 displacement	-1%	-13%	x	x	14%	-2%	6%	3%
HIV peptide binding	0.0%	-2.3%	x	x	0.7%	-0.5%	-0.2%	7.6%
Myeloid diff 2	i	i	i	i	i	i	i	u
Myeloid diff 2 GFP+ MAC1+ %	1.3	2.6	6.6	2.2	6.0	3.8&1.6	0.1	x

9: CCOC(=O)C1=C(C)N=c2s/c(=C\c3ccc(OCC(=O)O)cc3)c(=O)n2C1c1ccccc1 (stereo not drawn)
10: CC(=O)CC(c1ccccc1)c1c(O)c2ccccc2oc1=O (stereo not drawn)
11: CN(C)C(=O)C(CCN1CCC(O)(c2ccc(Cl)cc2)CC1)(c1ccccc1)c1ccccc1
12: Nc1ncncc1-c1ccc(Cl)cc1
13: CN1CCC[C@H]1c1cccnc1
14: OCCN1CCN(CCCN2c3ccccc3Sc3ccc(C(F)(F)F)cc32)CC1
15: Oc1ccccc1Nc1nc(NCc2ccco2)c2ccccc2n1
16: CCC1(c2ccccc2)C(=O)NCNC1=O

entry no.	9	10	11	12	13	14	15	16
NOD1 NF-kB reporter	18%	-4%&-18%	-18%	-5%	x	-11%	9%	-44%
HEK293 NOD2/NF-kB	26%	4%&16%	17%	0%	x	5%	16%	4%
Siah-1 displacement	3%	2%&2%	4%	-2%	x	-2%	-5%	4%
HIV peptide binding	66%	0.6%&-0.5%	-0.8%	-0.9%	x	-2.9%	-2.6%	0.5%
Myeloid diff 2	i	i	+	i	i	i	i	i
Myeloid diff 2 GFP+ MAC1+ %	0.3	1.5&2.3&2.5	15*	0.3	2.2&0.3	7.1	0.6	3.0

# Copied from above: entries 7 to 16
7: CCN(CC(=O)NC(C)(C)C)C(=O)COc1c(Cl)cc(Cl)c2ccc(C)nc12
8: CC(C)n1c(/C=C/[C@@H](O)C[C@@H](O)CC(=O)O)c(-c2ccc(F)cc2)c2ccccc21
9: CCOC(=O)C1=C(C)N=c2s/c(=C\c3ccc(OCC(=O)O)cc3)c(=O)n2C1c1ccccc1 (stereo not drawn)
10: CC(=O)CC(c1ccccc1)c1c(O)c2ccccc2oc1=O (stereo not drawn)
11: CN(C)C(=O)C(CCN1CCC(O)(c2ccc(Cl)cc2)CC1)(c1ccccc1)c1ccccc1
12: Nc1ncncc1-c1ccc(Cl)cc1
13: CN1CCC[C@H]1c1cccnc1
14: OCCN1CCN(CCCN2c3ccccc3Sc3ccc(C(F)(F)F)cc32)CC1
15: Oc1ccccc1Nc1nc(NCc2ccco2)c2ccccc2n1
16: CCC1(c2ccccc2)C(=O)NCNC1=O

entry no.	7	8	9	10	11	12	13	14	15	16
NOD1 NF-kB reporter	49%*	-29%	18%	-4%&-18%	-18%	-5%	x	-11%	9%	-44%
HEK293 NOD2/NF-kB	4%	-20%	26%	4%&16%	17%	0%	x	5%	16%	4%
Siah-1 displacement	6%	3%	3%	2%&2%	4%	-2%	x	-2%	-5%	4%
HIV peptide binding	-0.2%	7.6%	66%	0.6%&-0.5%	-0.8%	-0.9%	x	-2.9%	-2.6%	0.5%
Myeloid diff 2	i	u	i	i	+	i	i	i	i	i
Myeloid diff 2 GFP+ MAC1+ %	0.1	x	0.3	1.5&2.3&2.5	15*	0.3	2.2&0.3	7.1	0.6	3.0

# More entries.
17: c1ccc(-c2nnc(-c3ccccn3)nc2NC2CCCCC2)cc1
18: CC(C)NC[C@@H](O)c1ccc(O)c(O)c1
19: O=C(N/N=C\c1ccccn1)c1ccccc1O
20: Cn1nnnc1SCC1=C(C(=O)O)N2C(=O)[C@@H](NC(=O)[C@H](O)c3ccccc3)[C@H]2SC1
21: CN1CCN(CCCN2c3ccccc3Sc3ccc(Cl)cc32)CC1
22: CC(C)NC[C@H](O)COc1cccc2[nH]ccc12
23: O=C(O)/C=C/c1cnc[nH]1
24: CC(=O)[C@H]1CC[C@H]2[C@@H]3CCC4=CC(=O)CC[C@]4(C)[C@H]3CC[C@]12C

entry no.	17	18	19	20	21	22	23	24
NOD1 NF-kB reporter	-13%	-12%	-35%	48%	-2%&-3%	0%	-54%	-4%&5%
HEK293 NOD2/NF-kB	-219%	4%	-78%	18%	13%&13%	11%	-12%	7%&16%
Siah-1 displacement	-2%	-6%	0%	-1%	-6%&0%	1%	1%	5%&-2%
HIV peptide binding	-5.3%	19%	0.0%	25%	-3.4%&-3.4%	0.2%	0.6%	-2.1%&-1.9%
Myeloid diff 2	u	i	i	i	u	i	i	i
Myeloid diff 2 GFP+ MAC1+ %	x	2.5	0.1	1.9	x	2.5	2.6	3.1&1.9
